NPYLR7 agonist: activates Aedes aegypti NPYLR7 receptor | HEK293T NPYLR7/Galpha15, GCaMP6s calcium fluorescence | activation, % at 10 µM | 0.15% of 270,000 active | AID 1259423; in the data active = activation above about 40%;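 also: 0% = vehicle and 100% = reference agonist at the receptor; some compounds past the cut are filed as inactive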
NPYLR7 agonist max-min: further read-out of NPYLR7 agonist, marked with its call; activation, %; measured here: Max-Min RFU normalised activation; some inactives read as strong as hits;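 span of the calcium signal over five minutes; 0% = vehicle and 100% = native peptide agonist; compound fluorescence can raise it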
* = called active by the depositor; & = joins results of further samples. Not all compounds are listed. The share of hits here may be higher or lower than overall.

SMILES | NPYLR7 agonist | NPYLR7 agonist max-min
CC1CCC(N(C(=O)Nc2nnc(C3CC3)s2)C2CC2)CC1 (stereo not drawn) | -33 | -31
Cc1cc(S(=O)(=O)N2CCC(NS(=O)(=O)c3cccs3)CC2)ccc1Br | 7 | 2
S=c1[nH]nc(CCc2ccccc2Cl)o1 | 4 | 2
C=CCN(c1ccc(C(=O)O)cc1)S(=O)(=O)c1ccc(/C=C/C(=O)O)cc1 | 0 | -3
CS(=O)(=O)CCCSCc1ccc(Br)c(F)c1 | 7 | 5
COc1ccc(COC(=O)c2ccc(Cl)o2)cc1 | 0 | -2
CCn1c(SCC(=O)NCCc2ccccc2)nc2c(c1=O)SC(C)C2 (stereo not drawn) | -8 | -9
Cc1ccc(C)c(OCC(=O)NCCNC(=O)c2cccnc2)c1C | -7 | -10
CC(=O)NCCC1CCCCN1C(=O)Nc1ccc(F)c(C(F)(F)F)c1 (stereo not drawn) | 7 | 6
Cc1noc(C)c1CCC(=O)N(C)Cc1nccn1C | 0 | 16
CCCC1SCCN1C(=O)c1ccc2c(c1)[nH]c(=O)n2C (stereo not drawn) | -21 | -21
O=C(COc1ccccc1F)N(Cc1nnc(-c2ccc(Cl)cc2)o1)C1CC1 | 1 | 5
CCCCCOC(=O)C1=C(C)NC2=C(C(=O)CCC2)C1c1ccc(C)cc1 (stereo not drawn) | 7 | 10
Cc1ccccc1NC(=O)CN(c1cccc([N+](=O)[O-])c1)S(=O)(=O)c1ccccc1 | 3 | 13
C=CCn1c(O)c(N=NC(=O)c2ccc(Cl)cc2Cl)c2ccccc21 | -7 | -11
CC(=O)Nc1ccc(C)c(S(=O)(=O)NCCc2ccc(C(C)C)cc2)c1 | 6 | 3
COc1ccc(C=C2SC(=O)N(CCNC(=O)C(C)(C)C)C2=O)cc1 | 3 | 3
O=C(NCc1ccc(F)c(C(F)(F)F)c1)c1cccnc1Nc1cccc(Cl)c1 | -3 | -13
Cc1ccsc1CN(Cc1ccc(F)cc1)C(=O)CN(C(=O)COc1ccc(Cl)cc1)C1CC1 | -10 | -15
Cc1cc(CN(C)C(=O)c2coc(COc3cccc4cccnc34)n2)no1 | -3 | -5
CC1(C)OC(=O)C(=C2C3C4CC5C2C2C3CC4C52)C(=O)O1 (stereo not drawn) | 3 | 0
CCn1c(SCc2ccc(C(=O)N3CCN(c4ccccc4F)CC3)cc2)nnc1-c1ccccc1Cl | -5 | -3
O=C(CSCc1ccccc1Cl)N1CCN(S(=O)(=O)c2ccccc2)CC1 | 3 | 2
CC(C)c1cnc2c(c1SCC(=O)N1CCCCC1)c(=O)n(C)c(=O)n2C | -5 | 0
Cc1ccc(-c2cccc(-n3cnnc3)c2)c2cccnc12 | -4 | -5

Profiles, looked up by structure. Order of values: NPYLR7 agonist	NPYLR7 agonist max-min
Results for `CC(=O)NCCC1CCCCN1C(=O)Nc1ccc(F)c(C(F)(F)F)c1` (stereo not drawn) = 7	6
Results for `Cc1ccccc1NC(=O)CN(c1cccc([N+](=O)[O-])c1)S(=O)(=O)c1ccccc1` = 3	13
Results for `C=CCN(c1ccc(C(=O)O)cc1)S(=O)(=O)c1ccc(/C=C/C(=O)O)cc1` = 0	-3

Some of the entries above, set out differently.
> Cc1ccccc1NC(=O)CN(c1cccc([N+](=O)[O-])c1)S(=O)(=O)c1ccccc1
  NPYLR7 agonist: 3 | NPYLR7 agonist max-min: 13
> C=CCn1c(O)c(N=NC(=O)c2ccc(Cl)cc2Cl)c2ccccc21
  NPYLR7 agonist: -7 | NPYLR7 agonist max-min: -11

Next entries:
SMILES | NPYLR7 agonist | NPYLR7 agonist max-min
Cc1ccc(Cl)c(Oc2cc(N3CCN(C(=O)N(C)C)C(C)C3)ncn2)c1 (stereo not drawn) | -9 | -3
CSCc1nnc(NC(=O)c2ccc(S(=O)(=O)N(CCC#N)CCC#N)cc2)o1 | -4 | -5
COc1cc(C2NC(=O)NC(C)=C2C(=O)Nc2ccccc2OC)ccc1O (stereo not drawn) | -4 | -13
CCOC(=O)CCC(=O)N(CCOC)C(C)C(=O)c1c(C)[nH]c(C(=O)OCC)c1C (stereo not drawn) | -6 | -5
O=C1NCCN(Cc2cccc(F)c2F)C1CC(=O)N1CCCCCC1 (stereo not drawn) | 7 | 3
N=C1C(C(=O)NCCc2ccccc2)=CC2C(=O)N3C=CC=CC3=NC2N1Cc1ccco1 (stereo not drawn) | 4 | 6
CN(CCc1ccccc1)c1nc(-c2cccc(C(F)(F)F)c2)nc2ccccc12 | 20 | 25
O=c1cc(-c2ccc(O)cc2)oc2ccc(O)cc12 | -5 | -12
CCOC(=O)c1c(C)n(-c2ccccc2)c2ccc(OC(=O)C34CC5CC(CC(C5)C3)C4)cc12 | 0 | 2
COCc1c(Br)c(C)nc(OCC(=O)N/N=C\c2cc(Br)cc(I)c2O)c1C#N | 1 | 6
CC(C)(C)C(O)/C=C/c1ccc2c(c1)OCO2 (stereo not drawn) | -2 | -7
Cc1cc(C)n(-c2ccc(C(=O)NC(Cn3ccnc3)C(C)C)cc2)n1 (stereo not drawn) | -4 | -5
CCc1c(C)n([O-])c2c([n+]1=O)CCCCC2 | -2 | -7
COc1ccc(-n2nc([N+](=O)[O-])c(=NCCc3ccc(Cl)cc3)n2O)cc1 | -6 | -10
CC(C)(C)CC1CCCN1C(=S)NC1CC1 (stereo not drawn) | 26 | 24
CCOC(=O)c1nn(-c2ccccc2C)c(=O)cc1OCC(=O)Nc1ccccc1OCC | 7 | 3
Cc1ccccc1NC(=O)Nc1ccc(-n2nc(OCc3ccc(F)cc3)nc2-c2cccc(F)c2)cc1 | 8 | 11
O=C(CCN(Cc1ccco1)c1nc(-c2ccccc2Cl)nc2ccccc12)N1CCN(c2ccccc2F)CC1 | 18 | 19
O=C(CN1CCOc2ccccc2C1)N1CCc2[nH]ncc2C1 | -3 | -9
O=C(CCS(=O)(=O)c1ccccc1)N1CCN(C(=O)C2CC2c2ccc(F)cc2)CC1 (stereo not drawn) | -9 | -10
Cn1cc(NC(=O)NCCc2c[nH]c3ccccc23)c2ccccc21 | -2 | -8
COCCN(CCOC)C(=O)[C@@H]1c2ccccc2C(=O)N(C(C)C)[C@H]1c1ccccc1 | -7 | -13
CCN1CCN(c2ncc(-c3cc(=O)[nH]c(N4CCN(CC)CC4)n3)c(C)n2)CC1 | 1 | -2
CCc1nn2c(nnc3c(=O)n(-c4ccccc4F)ccc32)c1-c1ccc(Cl)cc1 | 1 | 0
CCCn1nccc1C(=O)N1CCOc2c(O)cc(-c3cccnc3)cc2C1 | 12 | -8

Next section
SMILES | NPYLR7 agonist | NPYLR7 agonist max-min
CCc1nc2ccc(C(=O)NCCN3CCOCC3)cn2c1N(C)Cc1ccncc1 | -15 | -20
O=C1OCCC1Sc1nc2cc(Cl)ccc2s1 (stereo not drawn) | 2&2 | 1&0
O=C(COC1CCCCC1)Nc1ccc2c(c1)OC1(CCCCC1)O2 | -2 | -5
CC1=CC[C@@H]2CN(C(=O)c3cc4ncccn4n3)C[C@@H]2C1 | 6 | 4
O=C(O)c1ccc([N+](=O)[O-])o1 | 16 | 12
COc1ccccc1C1NC(=O)NC(C)=C1C(=O)OC1CCCC1C (stereo not drawn) | -4 | -10
O=[N+]([O-])c1cnn(Cc2nc(-c3ccc(-n4cccc4)cc3)no2)c1 | -1 | 1
Cn1c(=O)c2c(nc(N3CCCCC3)n2CCCc2ccccc2)n(C)c1=O | 0 | -2
Cc1cnc(NS(=O)(=O)c2cnn(Cc3ccccc3)c2)s1 | 3 | 3
COC(=O)C1=C(C)N=c2s/c(=C/c3cccc([N+](=O)[O-])c3)c(=O)n2C1c1ccccc1Cl (stereo not drawn) | 1 | 1
COc1ccc(OC)c(S(=O)(=O)NCCNc2cccc(C)n2)c1 | -7 | -7
COc1cc(C)nc(N(CC(=O)O)S(=O)(=O)c2ccccc2)n1 | 3 | 3
CCOC(=O)c1c(NC(=O)c2ccccc2F)sc(C(=O)Nc2ccc3c(c2)OCO3)c1C | -6 | -5
O=C1CCCN1CCCc1nc(-c2cccs2)no1 | -1 | -2
CCCC(O)CN(CCOC)Cc1ccccc1 (stereo not drawn) | -21 | -12
Cn1cccc1C(=O)NS(=O)(=O)c1cccc2cccnc12 | -15 | -13
CN(C)C1(CNC(=O)C/C=C/c2ccc(F)cc2)CCOCC1 | -14 | -14
COCCOC(=O)c1ccc(NC(=O)CCN2C(=O)c3ccccc3C2=O)cc1 | -2 | -10
CN(C(=O)C1CCCC(C(F)(F)F)C1)c1ccc(S(C)(=O)=O)cc1 (stereo not drawn) | 5 | 2
CN(C)C(=O)c1cccc(CNc2ccc(C#N)cn2)c1 | 2 | -1
COC[C@@H]1CCCN1C(=O)c1ccc(-n2nc(-c3ccc(Cl)c(Cl)c3)cc2N)cc1 | 23 | 17
CC(C)(C)c1cc(N2CCN(Cc3ccc4c(c3)OCO4)CC2)nc(SCc2ccc(C(=O)NCC3CCCO3)cc2)n1 (stereo not drawn) | 12 | 11
Cc1cccc(NC(=O)CN(C)CC(=O)Nc2c(C#N)c(C)c(C)n2Cc2ccco2)c1C | -6 | -7
O=C(COc1coc(CN2CCN(c3ccccc3)CC2)cc1=O)NCc1ccccc1 | 1 | 0
Cc1cn2c3c(=O)n(Cc4ccccc4F)c(=O)n(C)c3nc2n1CCCn1ccnc1 | 6 | 1

Next part:
SMILES | NPYLR7 agonist | NPYLR7 agonist max-min
O=C(c1csc2ccccc12)N1CCN(C(c2ccccc2)c2ccc(Br)cc2)CC1 (stereo not drawn) | 1 | 7
Cc1ccsc1C=Nc1c(F)c(F)c(F)c(F)c1F | -3 | -2
CC1(C)CC2CC(C)(CN2C(=O)c2csc(CSc3nnc(-c4cccnc4)n3-c3cccc(Cl)c3)n2)C1 (stereo not drawn) | -7 | 6
O=S(=O)(c1ccc(F)cc1)N1CCC(CCc2ccc3c(c2)OCO3)CC1 | 3 | 1
Cc1ccc2c(c1)c(CNc1nccc(CCC(F)(F)F)n1)nn2C | 8 | 6
COc1cccc(NC(=O)C(CCSC)NC(=O)N2CC(=O)Nc3ccccc32)c1 (stereo not drawn) | 2 | 50
Cc1cc(N2CCC(C)CC2)n2ncc(-c3ccccc3)c2n1 | -4 | -7
NC(Cc1cccc(-c2ccccc2CP(=O)(O)O)c1)C(=O)O (stereo not drawn) | 5 | -39
CCC(C)N(C(=O)CSc1nc(N)nc(N)n1)C1CCS(=O)(=O)C1 (stereo not drawn) | -4 | -7
O=C(NC1CCCN(C2Cc3ccccc3C2)C1)C1(N2CCOCC2)CCCCC1 (stereo not drawn) | 6 | 4
O=C1CCCCN1CCCC(=O)N1CCOC(Cc2ccccc2)C1 (stereo not drawn) | 21 | 12
CN1[C@H]2CC[C@@H]1CN(C(=O)C13CC4CC(C1)CC(n1cncn1)(C4)C3)CC2 | 0 | -5
CCCc1nc(N2CCCN(Cc3cc(OC)ccc3OC)CC2)c2cnn(-c3ccccc3)c2n1 | 11 | 14
NS(=O)(=O)c1cc(S(=O)(=O)c2ccc(Cl)c(S(N)(=O)=O)c2)ccc1Cl | -4 | -12
COc1cccc(CN(C)CCC(=O)NCC(=O)c2ccccc2)c1 | 2 | 0
Cc1c(C(=O)O)sc2ncnc(N(C)CCN3CCCCC3=O)c12 | 25 | 18
O=C(NCCc1ccc(F)cc1)c1ccc(-c2cccc(C(F)(F)F)c2)s1 | 3 | -1
O=C(Nc1ccc(N2CCCCC2)c(C(=O)NCCc2ccccc2)c1)c1ccc(Br)cc1 | -6 | 4
O=C(COc1ccc(F)cc1)Nc1nnc(SCc2ccccc2F)s1 | 3 | 10
COc1ccc2sc(C(=O)NCc3cccc(C(F)(F)F)c3F)c(Cl)c2c1 | 8 | 18
COC(=O)c1ccc(N2C(=O)CSC2c2ccc(OC(F)F)cc2)cc1 (stereo not drawn) | -3 | -11
CO[C@H]1CC(O[C@@H]2/C(C)=C/C[C@@H]3C[C@@H](C[C@]4(C=C[C@H](C)[C@@H](C5CCCCC5)O4)O3)OC(=O)[C@@H]3C=C(C)[C@@H](O)[C@H]4OC/C(=C\C=C\[C@@H]2C)[C@]43O)O[C@@H](C)C1O[C@H]1C[C@H](OC)[C@@H](O)[C@H](C)O1 (stereo partly drawn) | -8 | 5
O=C(NCc1cn2cc(Br)ccc2n1)c1ccc[nH]c1=S | 2 | 3
CCNC(=O)O[C@H]1C(=O)N(C)C2(CCN(C(=O)OCc3ccccc3)CC2)[C@@H]1C(=O)NC | 25 | 31
N#Cc1cccc(/C=C/C(=O)Nc2ccc3c(c2)CC(=O)N3)c1 | 4 | 0

In a second layout: entries from further up
Values in the order – NPYLR7 agonist | NPYLR7 agonist max-min
- CCc1c(C)n([O-])c2c([n+]1=O)CCCCC2
→ -2 | -7
- O=S(=O)(c1ccc(F)cc1)N1CCC(CCc2ccc3c(c2)OCO3)CC1
→ 3 | 1
- O=C(NCCc1ccc(F)cc1)c1ccc(-c2cccc(C(F)(F)F)c2)s1
→ 3 | -1
- COc1cc(C)nc(N(CC(=O)O)S(=O)(=O)c2ccccc2)n1
→ 3 | 3
- Cc1ccc(Cl)c(Oc2cc(N3CCN(C(=O)N(C)C)C(C)C3)ncn2)c1 (stereo not drawn)
→ -9 | -3
- CCCC(O)CN(CCOC)Cc1ccccc1 (stereo not drawn)
→ -21 | -12

Continuation.
SMILES | NPYLR7 agonist | NPYLR7 agonist max-min
COc1ccc(-n2cnnc2SCC(=O)NC(C)C23CC4CC(CC(C4)C2)C3)cc1 (stereo not drawn) | 3 | 2
CC/C=C/CC(=O)N1CCCC2(CCCN(CC)C2)C1 (stereo not drawn) | -7 | -11
NC(=O)c1cccc(F)c1I | -11 | -9
Cc1cnccc1CNC(=O)c1ccc(OC2CCN(S(C)(=O)=O)CC2)c(Cl)c1 | 4 | 1
COCC1CCN(c2nc3cccnc3nc2N2CCC(COC)CC2)CC1 | 1 | 17
CN(Cc1nc(CCc2ccccc2)no1)Cc1nccn1C | 14 | 4
COc1cccc(C(CN2CCN(C(=O)c3snnc3C)CC2)OCc2ccc(C#N)cc2)c1 (stereo not drawn) | 4 | 3
CC(=O)c1cccc(OS(=O)(=O)c2cn(C)c(=O)n(C)c2=O)c1 | 0 | -2
COc1ccc(-c2cnc(N)cn2)cc1C | 4 | 4
